HCMV UL50-53 inh: disrupts HCMV UL50-UL53 complex binding; AID 1918969; actives 0.15% (n = 190,000); HTRF UL50-UL53 interaction, normalized percent inhibition; inhibition, % (test concentration not listed);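 active = both replicates at 50% or more, plus weaker picks with an unusually low signal ratio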;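 note: stock transfer was 100 nL into about 20 µL; 0% = negative control wells and 100% = wells with untagged competitor protein; inactives centre near -12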
GIV Gai3 FP: GIV-Galpha-i interaction inhibition | P08753 | Galpha-i3/FITC-GIV peptide fluorescence polarization, 90 min; hits give low values; scaled: aluminum fluoride 0%, vehicle 100% | percent of control (FP), % (concentration not given with the values) | actives 0.42% (n = 210,000) | AID 1224905;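 active = replicate mean at 85% of control or lower, very high polarization wells dropped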;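 note: wells of about 15 µL received 100 nL stock; the first replicate is given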
Target sequence (P08753 whole entry, looked up): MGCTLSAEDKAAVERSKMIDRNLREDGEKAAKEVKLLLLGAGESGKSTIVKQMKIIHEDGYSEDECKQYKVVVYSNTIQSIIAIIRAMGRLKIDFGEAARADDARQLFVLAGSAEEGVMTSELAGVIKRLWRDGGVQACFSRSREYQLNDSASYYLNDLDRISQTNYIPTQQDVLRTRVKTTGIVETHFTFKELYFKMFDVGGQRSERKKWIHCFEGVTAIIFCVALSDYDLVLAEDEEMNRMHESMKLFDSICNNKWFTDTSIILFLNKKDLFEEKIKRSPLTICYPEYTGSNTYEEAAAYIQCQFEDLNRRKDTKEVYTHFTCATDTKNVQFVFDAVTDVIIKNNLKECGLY
Sa growth inh: inhibitors of Staphylococcus aureus growth at 42 °C; S. aureus RN4220 growth, OD600, 20 h; hits give low values; relative growth, % (concentration not given with the values); actives 0.53% (n = 170,000);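 active = growth at 42 °C up to 50% and 20 or more points under that at 30 °C, or under 10% at both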;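 note: 300 nL library stock went into each well; scaled to the means of positive and negative controls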
Sa growth inh second temp: recorded beside Sa growth inh, whose call it bears; relative growth, %; measured here: growth at 30 °C;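 optical density after 20 h as mean of two plates; 100% = untreated growth and lower means inhibition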
* marks the source's active call; other numbers are inactive results; . = no result given; & = joins results of further samples.

cpd | molecule | HCMV UL50-53 inh | GIV Gai3 FP | Sa growth inh | Sa growth inh second temp
1 | Nc1nc(CSc2nnc(C3CC3)n2C2CC2)nc(Nc2ccccc2)n1 | -32 | . | 77 | 85
2 | O=C(Nc1ccccc1)C(C(F)(F)F)C(F)(F)F | -3 | 108 | 104 | 92
3 | O=C(COc1ccccc1)Nc1ccc(Cl)c(-c2nc3ccccc3c(=O)o2)c1 | 8 | 106 | 108 | 95
4 | O=C(Nc1ccc(Br)cc1)NC(c1ccccc1)c1nnc(-c2ccccc2)o1 (stereo not given) | -17 | 98 | . | .
5 | COc1ccc(NS(=O)(=O)c2ccc3nc(-c4ccccc4)[nH]c3c2)cc1 | -2 | 105 | 114 | 98
6 | Cc1nc(N2CCCC2)ncc1C(=O)N1CCN(c2ccc(Cl)cc2)CC1 | . | 108 | 103 | 92
7 | CCN(CC)CCCNC(=O)C1CCCN(S(=O)(=O)c2ccc3c(ccn3CC)c2)C1 (stereo not given) | -31 | 103 | . | .
8 | O=C(Cc1c(F)c(F)c(F)c(F)c1F)OC12CC3CC(C1)C(=O)C(C3)C2 | -12 | . | 103 | 85
9 | OCCC1CCCCN1CC(O)c1ccccc1 (stereo not given) | -11 | . | 83 | 91
10 | C=C1C(=O)O[C@@H]2[C@H]3O[C@]3(C)CCC=C(C)CC[C@@H]12 | -20 | 98 | . | .
11 | CCc1ccc(-n2nc(C)c3c(C(=O)NCCc4ccc(OC)c(OC)c4)cc(C)nc32)cc1 | . | 104 | 88 | 80
12 | CCOC(=O)C1CCN(Cn2c(=S)n(-c3ccc(OC)cc3)c3ccccc32)CC1 | -33 | . | 110 | 93
13 | CC1CCN(S(=O)(=O)c2ccc3[nH]c4c(c3c2)CCCC4)CC1 | 12 | 101 | 97 | 94
14 | CCc1c(C)nc2ncnn2c1Sc1ccccc1NC(=O)Nc1ccc(OC)c(OC)c1 | 12 | 101 | . | .
15 | O=C(Nc1cccc2ccccc12)OCCn1ncc2ccccc2c1=O | -25 | 101 | 101 | 83
16 | COC(=O)c1c(NC(=O)CN2CCC3(CC2)OCCO3)sc2c1CCCC2 | -16 | 104 | 101 | 85
17 | COC(=O)CNc1c(F)c(F)nc(F)c1F | . | 100 | 95 | 88
18 | Cc1cc(C)nc(NC(c2ccc(F)cc2)c2c(NC(=O)c3ccccc3)sc(C)c2C)n1 (stereo not given) | -19 | 106 | . | .
19 | CC1CCN(S(=O)(=O)c2ccc(N3CCCCS3(=O)=O)cc2)CC1 | . | 98 | 85 | 90
20 | NNC(=O)C(NC(=O)c1ccccc1)c1n[nH]c(=O)c2ccccc12 (stereo not given) | 6 | 97 | 73 | 91

By substructure: those above containing an aryl thioether with sulfur outside any ring (2)
cpd | molecule | HCMV UL50-53 inh | GIV Gai3 FP | Sa growth inh | Sa growth inh second temp
1 | Nc1nc(CSc2nnc(C3CC3)n2C2CC2)nc(Nc2ccccc2)n1 | -32 | . | 77 | 85
14 | CCc1c(C)nc2ncnn2c1Sc1ccccc1NC(=O)Nc1ccc(OC)c(OC)c1 | 12 | 101 | . | .

Following part:
cpd | molecule | HCMV UL50-53 inh | GIV Gai3 FP | Sa growth inh | Sa growth inh second temp
21 | CC1=C(C(=O)Nc2nccs2)C2(CCCCCC2)OC1=O | -30 | 102 | 83 | 70
22 | O=C(O)c1nn2cccnc2c1Cl | 12 | 105 | 73 | 91
23 | O=c1[nH]c(=O)n(Cc2ccccc2)c2ncn(Cc3ccco3)c12 | -31 | . | 61 | 82
24 | O=C(O)CC1C(=O)NCCN1CC(c1ccccc1)c1ccccc1 (stereo not given) | -11 | 102 | 104 | 92
25 | COCCNCc1nc(NCCOC)c2c(C)c(C)sc2n1 | -18 | . | 100 | 91
26 | CNS(=O)(=O)c1ccc2nc(N)sc2c1 | -20 | 107 | 41 | 22
27 | N#CC1(c2ccccc2)CCc2c(sc3ncnc(N4CCCC4)c23)C1 (stereo not given) | -13 | 102 | 99 | 81
28 | O=C(O)c1[nH]nc2c1COc1ccccc1-2 | -4 | 101 | 82 | 85
29 | COc1cc2c(cc1OC)C(COc1cccc(C(F)(F)F)c1)N(C(=O)c1ccco1)CC2 (stereo not given) | . | 110 | 87 | 84
30 | COc1ccc(Nc2cc(C(=O)O)c3ccccc3n2)cc1 | 14 | 105&107 | 99 | 104
31 | Cc1ccc2c(CC(=O)Nc3c(C(=O)Nc4cccc(Cl)c4)oc4ccccc34)coc2c1C | -2 | 106 | 118 | 78
32 | CCOC(=O)C1CCN(C(=O)Cn2ncc3c([nH]c4ccc(C)cc43)c2=O)CC1 | . | 102 | 78 | 87
33 | COc1ccc(N=Cc2cc3ccc(C)cc3nc2Cl)cc1 | -15 | . | 100 | 91
34 | COc1ccc(CCNC2=CC(=O)CC(C)(C)C2)cc1OC | -2 | 105 | 110 | 87
35 | O=C(NC1CCS(=O)(=O)C1)c1ccco1 (stereo not given) | -15 | . | 95 | 86
36 | O=C(Cn1c(=O)oc2ccccc21)NC(=O)NC1CCCC1 | 1 | . | 85 | 91
37 | Nc1c2c3c(sc2nc(=O)n1N)CCCC3 | 7 | 102 | 96 | 107
38 | O=C(COc1ccc(Cl)cc1)Nc1cc(-c2ccccc2)no1 | -25 | 104 | 104 | 84
39 | CN(CCCN1c2ccccc2CCc2ccccc21)CC(=O)c1ccc(Cl)cc1 | -4&-41 | . | 90 | 78
40 | CC(=O)Nc1ccc(NCc2cccs2)cc1 | -4 | 101 | 105 | 101
41 | CCC(Oc1ccccc1F)C(=O)Nc1ccc2c(c1)NC(=O)CO2 (stereo not given) | -17 | 105 | . | .
42 | CCCC1=NN(c2ccccc2)C(=O)/C1=C/c1ccc(Cl)cc1 | 19 | 96 | 86 | 76
43 | CCOc1ccc(NC(=O)C(=O)c2cc(C)n(-c3cc(C)cc(C)c3)c2C)cc1 | 24 | 108 | 115 | 100
44 | O=C(NCCCn1ccnc1)c1ccncc1 | 8 | 99 | 99 | 95
45 | CCN(CC(=O)Nc1ccc(C#N)cc1)C1CCCCC1 | 1 | . | 81 | 94
46 | O=C(Cc1ccc(NC(=O)N2CCSc3ncccc32)cc1)NCCc1ccccc1 | . | 108 | 94 | 93
47 | Fc1ccc(F)c(C2NCCc3c2[nH]c2ccccc32)c1 (stereo not given) | -29 | 103 | . | .
48 | Cc1ccc(C(=O)N2CCN(c3cccc4[nH]ccc34)CC2)cc1 | -7 | 106 | 98 | 70
49 | Fc1cc(Br)ccc1N=Cc1ccc2ncccc2c1 | -38 | . | 110 | 92
50 | N#CC1(NC(=O)CSc2nnc3ccccn23)CCCCC1 | -37 | . | 104 | 97
51 | CC1=NN(C(=O)COc2ccccc2C)C(O)(c2ccc(Cl)cc2)C1 (stereo not given) | 13 | 108 | 101 | 99
52 | Cc1c(C(=O)O)oc2ccc3nc(N(C)C)sc3c12 | . | 106 | 108 | 90
53 | CN(C)S(=O)(=O)c1cccc(-c2cn3cccnc3n2)c1 | -17 | 99 | 86 | 81
54 | O=C(Nc1ccc(Br)cc1F)c1ccc(Cn2c(=O)c3cccn3c3cccnc32)cc1 | -21 | 106 | . | .
55 | CCN(CC)CCn1c(C)c(C)c2c1ncn1nc(Cc3ccccc3)nc21 | 7 | 98 | . | .
56 | COc1cccc(NS(=O)(=O)c2ccc3[nH]cc(C(=O)N4CCc5ccccc54)c(=O)c3c2)c1 | 1 | 98 | 129 | 92
57 | CC(CC(=O)Nc1ccc(Br)cc1F)S(=O)(=O)c1ccc2c(c1)NC(=O)CO2 (stereo not given) | . | 105 | 100 | 84
58 | Cc1cccc2c(C(=O)O)cc(-c3cccnc3)nc12 | -44 | 103 | 87 | 83
59 | CCOC(=O)C(Cc1ccccc1)NC(=O)CCc1c(C)nc2c(c(C)nn2-c2ccc(C)c(C)c2)c1C (stereo not given) | 1 | 103 | 89 | 85
60 | Cc1cc2ncn(CCc3ccccc3)c2cc1C | 0 | 103 | 90 | 102

Brought forward from above: 4 compounds, then new ones.
cpd | molecule | HCMV UL50-53 inh | GIV Gai3 FP | Sa growth inh | Sa growth inh second temp
57 | CC(CC(=O)Nc1ccc(Br)cc1F)S(=O)(=O)c1ccc2c(c1)NC(=O)CO2 (stereo not given) | . | 105 | 100 | 84
58 | Cc1cccc2c(C(=O)O)cc(-c3cccnc3)nc12 | -44 | 103 | 87 | 83
59 | CCOC(=O)C(Cc1ccccc1)NC(=O)CCc1c(C)nc2c(c(C)nn2-c2ccc(C)c(C)c2)c1C (stereo not given) | 1 | 103 | 89 | 85
60 | Cc1cc2ncn(CCc3ccccc3)c2cc1C | 0 | 103 | 90 | 102
61 | Cc1ccc(S(=O)(=O)/N=S(\C)c2ccccc2)cc1 (stereo not given) | -9 | 103 | 104 | 94
62 | COc1ccc2cc3cc(C(=O)NCc4ccc(C)cc4)oc3nc2c1 | -1 | 105 | 107 | 102
63 | CSc1cccc(N/C=C(/C#N)c2ccsc2)c1 | -4 | 101 | . | .
64 | CC(=O)N1CCC(C(=O)OCC#N)(c2ccccc2)CC1 | -6 | . | 102 | 92
65 | COC(=O)c1c(C)[nH]c(C(=O)C(C)N2CCCc3ccccc32)c1C (stereo not given) | -14 | . | 85 | 87
66 | Cc1ccc(-c2cc(Nc3cccc4cccnc34)nc(C)n2)cc1 | 9 | 100 | . | .
67 | CC(=O)c1ccc(NC(=O)C2CCN(S(=O)(=O)c3c(C)noc3/C=C/c3ccc(C)cc3)CC2)cc1 | . | 101 | 91 | 87
68 | Cn1nnc2c(sc3nc(N4CCOCC4)c4c(c32)CCCC4)c1=O | . | 103 | 101 | 98
69 | Cc1c(C(=O)NCC(C)C)oc2c1ccc1ccccc12 | 6 | . | 99 | 96
70 | COC(=O)c1sccc1-c1ccc(CN2CCN(c3ccccc3)CC2)o1 | -16 | 98 | 98 | 91
71 | Clc1ccc(Oc2ncnc3c2nnn3Cc2ccccc2)cc1 | 33 | 103 | 101 | 90
72 | Nc1nnc(SCC(=O)N2CCc3ccccc32)s1 | -12 | . | 83 | 92
73 | CCC(NS(=O)(=O)c1c(C)[nH]c(=O)[nH]c1=O)C12CC3CC(CC(C3)C1)C2 (stereo not given) | 0 | . | 84 | 79
74 | CCCCOc1cccc(C(=O)Nc2ccc3c(c2)NC(=O)CO3)c1 | 3 | 107 | . | .
75 | COc1ccc(OC)c(NC(=O)Nc2ccccc2SCc2cc(=O)n3cc(Cl)ccc3n2)c1 | -67 | 106 | . | .
76 | CSc1sc(Cl)c(Cl)c1S(=O)(=O)C(C)C | -33 | 107 | 94 | 86
77 | O=C1CCC(=O)N1C1CCCCC1 | -9 | 102 | 86 | 83
78 | O=C(COC(=O)Cc1ccc(Br)cc1)NCc1ccco1 | -19 | . | 97 | 95
79 | CC1=C(c2ccc(C)c(C)c2)S(=O)(=O)N=C1N1CCC(C(=O)Nc2cccc(F)c2)CC1 | . | 101 | 92 | 91
80 | CCOC(=O)N1CCC(NC(=O)C2CCCN(C(=O)N3CCOc4ccccc43)C2)CC1 (stereo not given) | . | 101 | 89 | 91
81 | NS(=O)(=O)c1ccc(N=Cc2c(O)[nH]c3ccccc23)cc1 | -58 | 95 | 83 | 92
82 | c1ccc2c(c1)nc(N1CCCC1)c1nncn12 | . | 99 | 82 | 79
83 | CCN1C(=O)c2cccc3c(S(=O)(=O)NCCCn4ccnc4)ccc1c23 | -93 | . | 90 | 92
84 | CN1C(=O)NC(c2ccccc2)C2=C1CN(CCc1ccccc1)C2=O (stereo not given) | -15 | . | 91 | 67
85 | COc1ccc(-c2cn3nc(N4CCCC(C(=O)Nc5cc(Cl)ccc5C)C4)sc3n2)cc1 (stereo not given) | -22 | 108 | 110 | 73
86 | COc1cccc(NC(=O)C(c2ccccc2)N2CCCCC2)c1 (stereo not given) | -15 | . | 86 | 90
87 | Cc1onc(-c2c(Cl)cccc2Cl)c1C(=O)NCCS(=O)(=O)c1ccccc1 | . | 100 | 117 | 94
88 | Cn1c(SCC(N)=O)nc2c([nH]c3ccccc32)c1=O | . | 104 | 108 | 89
89 | COc1ccc(N2CCN(C(CNC(=O)c3ccc(OC)c(OC)c3)c3cccnc3)CC2)cc1 (stereo not given) | -34 | 105 | 98 | 97
90 | CCn1c(=O)c(=O)[nH]c2cc(S(=O)(=O)N(C)C)ccc21 | -14 | . | 104 | 86
91 | Cn1c(=O)c(=O)n(C)c2cc(N3CCCC3)c(NC(=O)c3ccccc3F)cc21 | -12 | 99 | 92 | 87
92 | Cc1ccc(/C=C/C(=O)Nc2ccc3nc4n(c(=O)c3c2)CCCC4)cc1 | -18 | 100 | 98 | 83
93 | CCn1cc(C(=O)N2CCN(c3ccccc3)CC2)c(=O)c2cc(S(=O)(=O)N3CCCC3)ccc21 | -30 | 103 | 106 | 96
94 | CCCCNc1nc2c(c(=O)n(C)c(=O)n2C)n1CC(O)COc1ccccc1C (stereo not given) | -40 | 104 | 94 | 76
95 | NS(=O)(=O)c1ccc(C2CCCCC2)cc1 | 11 | 106 | 101 | 81
96 | COc1ccc(S(=O)(=O)N2CCN(C(=O)c3nsc4ccc(C)cc34)CC2)cc1Cl | -25 | 102 | . | .
97 | CC(=O)c1sc(N2C(=O)c3oc4ccccc4c(=O)c3C2c2ccc(C)cc2)nc1C (stereo not given) | -6 | 102 | 107 | 96
98 | CCOC(=O)c1ccc(NC(=O)c2cc3c(n(-c4ccc(C)cc4)c2=O)CC(C)(C)CC3=O)cc1 | -18 | 109 | 87 | 106
99 | Cc1nc(COc2ccccc2Cl)sc1C(=O)/C=C/N(C)C | -86 | 106 | 104 | 82
100 | O=c1oc2c(CN3CCCCC3)c(O)ccc2cc1-c1nc2ccccc2s1 | -47 | -32* | . | .

Source: PubChem BioAssay
